NS1 inh – blocks influenza NS1 protein function; S. cerevisiae slowed by influenza A NS1, growth recovery by OD600; Potency, µM (series often up to 46.1 µM), for the others: at the highest dose activity, positive = more growth; hit rate 0.4% among 270,000; AID 2326; note: actives are rising curves; nearly all actives have a fitted effect of over 50% in size
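Read-out: OD600 growth recovery of NS1-expressing budding yeast. Cells grown overnight at 30C in -URA glucose medium, washed, resuspended and diluted 1:100 in 2% galactose assay medium, pH 6.0. Same strain lacking NS1 served as positive control.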
StopGo reporter – FMDV 2A StopGo reporter, luciferase signal | hit rate 1.2% among 410,000 | AID 1159524 | Potency, µM (highest dose often 57.9 µM), inactives show top-dose signal change, negative = less light | human cells with a luciferase reporter of 2A StopGo recoding; control for the full effect not named in the record; active = well fitted falling curve with a large enough effect; inconclusive = small, poorly fitted or top-dose-only effect; inactive = no such curve, though single readings can be large or run the other way; tested in HEK293T cells; note: % is set by controls: 0 for no effect and ±100 for the full control effect; nearly all actives have a fitted effect of over 45% in size; luciferase light after 4 h
SARS PLP yeast – SARS-CoV PLP inhibition in yeast; S. cerevisiae expressing SARS-CoV PLpro, growth rescue; control for the full effect not named in the record; Potency, µM (doses to about 32.9 µM), for the others: at the highest dose activity, positive = growth rescue; hit rate 0.19% among 330,000; AID 485353; note: 0% is about no effect; nearly all actives have a fitted effect of over 55% in size; growth read by luminescence after 48 h
LASV entry inh – Lassa virus entry inhibition; Lassa virus pseudotype entry inhibition, cell reporter; control for the full effect not named in the record; Potency, µM (highest dose often 37.9 µM), for the others: top-dose activity change, negative = inhibition, hits mostly inhibitors; hit rate 1.2% among 300,000; AID 540256; active means well fitted inhibition curve with a large enough effect; inconclusive means small, poorly fitted or top-dose-only effect, or effect the other way; inactive means flat fitted curve, though single readings scatter; tested in HEK293 cells; note: % is set by controls: 0 for no effect and ±100 for the full control effect; nearly all actives have a fitted effect of over 50% in size; luciferase read-out
Cruzain Triton – inhibitors of Trypanosoma cruzi cruzain with detergent | Potency, µM, for inactives: max response, negative = inhibition, usual class: inhibitors | purified cruzain, Z-FR-AMC fluorescence, 0.01% Triton | hit rate 0.43% among 200,000 | P25779; active = well fitted curve in the direction sought with a large enough effect; inconclusive = small, poorly fitted or top-dose-only effect, or another doubt; inactive = no such curve, though single readings can be large; an effect the other way counts as inactive or inconclusive;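 note: plate controls were neutral wells for no effect and buffer without enzyme for full effect; nearly all actives have a fitted effect of over 40% in size; top concentration of the series not given in the record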
Target sequence (P25779 123-467 limits assumed): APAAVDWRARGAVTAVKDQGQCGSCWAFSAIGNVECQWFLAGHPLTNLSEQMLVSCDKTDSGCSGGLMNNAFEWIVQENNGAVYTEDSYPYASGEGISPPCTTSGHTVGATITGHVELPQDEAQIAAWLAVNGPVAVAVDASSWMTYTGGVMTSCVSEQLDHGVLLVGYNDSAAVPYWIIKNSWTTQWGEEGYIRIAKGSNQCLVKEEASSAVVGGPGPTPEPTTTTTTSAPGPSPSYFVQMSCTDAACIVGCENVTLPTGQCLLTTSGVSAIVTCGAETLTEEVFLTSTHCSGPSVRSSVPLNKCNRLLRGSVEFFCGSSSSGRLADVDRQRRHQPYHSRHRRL
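Cysteine protease activity tested under reducing, mildly acidic conditions (100 mM sodium acetate pH 5.5, 5 mM DTT) plus 0.01% Triton X-100. Cruzain 1.5 nM; substrate Z-FR-AMC 2 uM; 15 min compound preincubation at room temperature.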
RE007 growth inh – less growth of the S. pombe RE007 Vpr strain; S. pombe RE007 Vpr strain, BacTiter-Glo ATP luminescence, 24 h; control for the full effect not named in the record; Potency, µM (titrated, usually from 92.2 µM), inactives show at the highest dose activity change, negative = less growth; hit rate 0.21% among 360,000; active = well fitted falling curve with a large enough effect; inconclusive = small, poorly fitted or top-dose-only effect; inactive = no such curve, though single readings can be large or run the other way;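 note: % is set by controls: 0 for no effect and ±100 for the full control effect; nearly all actives have a fitted effect of over 50% in size; the assay follows cell death caused by Vpr and the record does not say whether a fall means rescue or toxicity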
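Fission yeast strain RE007, carrying one chromosomally integrated HIV-1 vpr copy, was seeded at OD 0.01 in PMG+AL medium with 23 nL pinned compound. After 24 h at 30 °C and 99% humidity, viability was read by BacTiter-Glo luminescence.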
MARV entry inh – inhibitors of Marburg virus binding or cell entry; hit rate 1.8% among 300,000; Potency, µM (series often up to 37.8 µM), for the others: at the top dose activity change, negative = inhibition, most hits filed as inhibitors; AID 540276; Marburg virus pseudotyped entry inhibition, cell reporter; control for the full effect not named in the record; about a third of the inactives were read at about 46 µM; active = well fitted inhibition curve with a large enough effect; inconclusive = small, poorly fitted or top-dose-only effect, or effect the other way; inactive = flat fitted curve, though single readings scatter; tested in HEK293 cells; about a fifth of its hits are not listed in these tables; note: % is set by controls: 0 for no effect and ±100 for the full control effect; luciferase read-out
Cruzain inh noDet – cruzain (T. cruzi) inhibition without detergent | P25779 | purified cruzain, Z-FR-AMC fluorescence, no detergent | Potency, µM, without a hit: max response, negative = inhibition, hits mostly inhibitors | hit rate 2.3% among 200,000 | AID 1476; active = well fitted curve in the direction sought with a large enough effect; inconclusive = small, poorly fitted or top-dose-only effect, or another doubt; inactive = no such curve, though single readings can be large; an effect the other way counts as inactive or inconclusive;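 note: plate controls were enzyme without inhibitor for no effect and buffer without enzyme for full effect; nearly all actives have a fitted effect of over 40% in size; top concentration of the series not given in the record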
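Detergent-free condition (0.00005% Triton X-100) in acetate buffer pH 5.5 with DTT. 1.5 nM enzyme and compound were pre-mixed 15 min, then 2 uM Z-FR-AMC substrate added; reaction progress from fluorescence change between first and third reads (60 s).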
The depositor's hits bear a star; ? = inconclusive; / = no result given; & = joins results of further samples; [ ] = dose if it differs, or a comment. Unless noted, calls come from the whole dose curve; as a rule, active means well fitted rising curve with a large enough effect; inconclusive means small, poorly fitted or top-dose-only effect; inactive means no such curve, though single readings can be large or run the other way. Potency is the fitted concentration of half-maximal effect. An unsorted share of the library (roughly 4.8% active in at least one column).

The opening 3 records as a preview:
entry	SMILES	Cruzain Triton	RE007 growth inh	Cruzain inh noDet	MARV entry inh
1	Cc1cc(C(=O)CN2C(=O)NC(CC(C)C)C2=O)c(C)n1-c1ccccc1F (stereo not given)	/	15.0%	/	12.2%[14.2 µM]
2	O=C(O)/C=C/C(=O)Nc1ccccc1C(=O)Nc1ccccc1	0.7%	-3.1%	0.2%	4.3%
3	O=C(Nc1ccc(N2CCOCC2)cc1)C1CCCN(S(=O)(=O)c2ccccc2)C1 (stereo not given)	1.4%	3.3%	3.0%	?

entry	LASV entry inh	NS1 inh	SARS PLP yeast	StopGo reporter
1	0.1%	/	1.2%	18.7%
2	?	1.9%	-0.4%	11.6%
3	-10.5%	-14.3%	-7.3%	?

The whole of this part, from the start:
entry	SMILES	Cruzain Triton	RE007 growth inh	Cruzain inh noDet	MARV entry inh
1	Cc1cc(C(=O)CN2C(=O)NC(CC(C)C)C2=O)c(C)n1-c1ccccc1F (stereo not given)	/	15.0%	/	12.2%[14.2 µM]
2	O=C(O)/C=C/C(=O)Nc1ccccc1C(=O)Nc1ccccc1	0.7%	-3.1%	0.2%	4.3%
3	O=C(Nc1ccc(N2CCOCC2)cc1)C1CCCN(S(=O)(=O)c2ccccc2)C1 (stereo not given)	1.4%	3.3%	3.0%	?
4	Cc1ccc2c(N)c(C#N)sc2n1	-1.2%	-0.3%	3.1%	-17.3%[46.1 µM]
5	Cc1oc(-c2ccc(Cl)cc2)nc1CS(=O)CC(=O)NCCCN1CC(C)CC(C)C1 (stereo not given)	/	-4.3%	/	?
6	CC(NC(=O)c1cc(-c2ccccn2)nc2ccc(Cl)cc12)C1CCCO1 (stereo not given)	/	-6.2%	/	-7.6%
7	CC(=O)N(C)c1ccc(NC(=O)c2cnn(C)c2)cc1	-4.4%	10.1%	-4.0%	5.0%
8	Cc1cc(=O)oc2ccc(OC(C)C(=O)O)cc12 (stereo not given)	0.3%	1.4%	3.8%	?
9	Cc1nonc1NC(=O)CSc1ccccn1	/	51.3%	/	0.2%[46.1 µM]
10	COc1ccc(C(=O)N2CCOC2CNC(=O)C(=O)NCc2ccc(F)cc2)cc1 (stereo not given)	/	12.1%	/	?
11	COc1nc(N=C(N)N)nc2c(C)cccc12	-12.8%	4.7%	-25.2%	-18.6%
12	CC(OC(=O)c1ccco1)C(=O)NC1CCCCC1 (stereo not given)	0.4%	-7.7%	-3.2%	-2.2%

entry	LASV entry inh	NS1 inh	SARS PLP yeast	StopGo reporter
1	0.1%	/	1.2%	18.7%
2	?	1.9%	-0.4%	11.6%
3	-10.5%	-14.3%	-7.3%	?
4	?	-4.1%	-4.2%	35.3%[activator]
5	1.5%[46.1 µM]	2.6%	-1.4%	20.5%
6	-2.5%	0.0%	-1.7%	-19.5%
7	3.0%	-0.8%	-3.9%	-0.9%
8	13.4%	-1.6%	-1.4%	-22.0%
9	3.2%[46.1 µM]	10.9%	-0.2%	0.0%
10	?	-3.7%	0.3%	-12.8%
11	-16.7%	11.2%	-0.1%	-15.8%
12	0.9%	-7.8%	-3.8%	-9.5%

Remaining list, next part
entry	SMILES	Cruzain Triton	RE007 growth inh	Cruzain inh noDet	MARV entry inh
13	O=c1ccc2c([nH]1)CCCCCCCCCC2	/	5.2%	/	3.1%
14	O=C(COC(=O)COc1ccccc1)Nc1cccc([N+](=O)[O-])c1	/	20.2%	/	0.9%[46.1 µM]
15	Cc1nc2c(-c3ccc(F)cc3)c(C)nn2c(C)c1CCC(=O)NCc1cccc(Cl)c1	1.3%	/	-2.0%	1.4%[46.1 µM]
16	COc1ccc(Cl)c(NC(=O)C/C(C)=N/NC(=O)CCc2ccccc2)c1	/	-4.7%	/	?
17	COC(=O)Cn1c(C(=O)N2CCCC2)cc2c1C[C@H]1CN(C(=O)c3ccccc3)[C@@](Cc3ccc(F)cc3)(C(=O)OC)[C@@H]21	-1.0%&-5.0%	6.7%	?	6.5%
18	CCO[C@H]1OC(C(=O)Nc2ccccc2)=C[C@@H](c2csc3ccccc23)[C@@H]1CCCO	/	4.6%	/	/
19	c1ccc(CCCN2CCN(c3ccccc3)CC2)cc1	/	0.1%	/	-27.0%
20	COc1ccc(CCNC(=O)CCc2c(C)c3cc4c(C)coc4cc3oc2=O)cc1	-3.4%	/	-7.3%	?
21	COc1ccccc1C(=O)OCc1cc(=O)n2nc(C3CC3)sc2n1	-1.9%	/	-0.5%	/
22	COC(=O)c1scc(C)c1N1C(=O)c2ccccc2C1=O	/	10.6%	/	6.3%[46.1 µM]
23	COc1ccc(OC)c(-c2nc(CN(C)C(C)c3ccncn3)c(C)o2)c1 (stereo not given)	/	0.4%	/	-6.5%[46.1 µM]
24	O=[N+]([O-])c1cc(-c2ncccn2)c([N+](=O)[O-])s1	-16.5%	?	1.0%	?

entry	LASV entry inh	NS1 inh	SARS PLP yeast	StopGo reporter
13	?	2.6%	10.8%	?
14	-6.4%	0.2%	-3.4%	-11.0%
15	-2.5%[46.1 µM]	/	/	0.0%
16	?	-1.0%	-3.1%	15.2%
17	-10.0%	-22.1%	15.9%	-20.0%
18	/	5.1%	-3.1%	-17.9%
19	-3.9%	3.2%	-6.3%	-4.7%
20	36.5%[46.1 µM]	/	/	-27.5%
21	-0.5%[46.1 µM]	/	/	32.0%[activator]
22	-4.1%[46.1 µM]	0.0%	-1.3%	-5.1%
23	-12.1%	1.6%	-1.6%	-10.6%
24	?	-46.2%	-127.1%	39.8µM*

Going on with the list:
entry	SMILES	Cruzain Triton	RE007 growth inh	Cruzain inh noDet	MARV entry inh
25	O=C(CN1CCN(Cc2ccccc2)CC1)c1ccccc1	3.9%	7.2%	2.1%	-10.2%
26	CCOC(=O)c1ccc(NC(=O)C2Cc3ccccc3C(=O)O2)cc1 (stereo not given)	-1.8%	/	-3.4%	?
27	Cc1nc2ccc(S(=O)(=O)c3ccc4nc(C)[nH]c4c3)cc2[nH]1	7.4%	4.7%	-0.7%	-14.2%
28	CCOc1ccc2nc(NC(=O)C(NS(=O)(=O)c3cccs3)C(C)C)sc2c1 (stereo not given)	-2.3%	-15.2%	-11.4%	?
29	c1ccc2c(c1)ncn2-c1ccc(-c2ccnc(-c3ccncc3)n2)cc1	-11.4%	-2.5%	-21.9%	?
30	CCc1ccc2nc(Nc3ncc(C(C)=O)c(C)n3)nc(C)c2c1	/	6.6%	/	/
31	COc1cccc(-c2nc(OC(C)C)c3ccccc3n2)c1	-3.6%	-17.1%	-3.9%	-7.5%
32	O=CC1=C(c2ccccc2)Oc2ccccc2O1	/	?	/	7.94µM*
33	O=C(Nc1ccc(Cl)cc1C(=O)Nc1ccc(Br)cn1)c1ccco1	-9.3%	-18.5%	?	?
34	Cc1ccccc1NC(=O)C(C#N)Cc1cccnc1 (stereo not given)	9.8%	-9.7%	9.4%	?
35	COc1ccc(C(=O)NCC(c2cccs2)S(=O)(=O)c2ccc(C)cc2)cc1 (stereo not given)	-4.2%	/	2.0%	/
36	CCN1/C(=C\C=C2\C(=O)N(c3ccccc3)C(=S)N2C)Sc2ccccc21	/	-1.1%	/	15.0%[46.1 µM]

entry	LASV entry inh	NS1 inh	SARS PLP yeast	StopGo reporter
25	-25.0%	6.2%	13.9%	-8.0%
26	19.0%[46.1 µM]	/	/	6.7%
27	13.5%	3.3%	-29.9%	6.3%
28	-0.9%	1.0%	2.8%	-26.3%
29	5.7%	-1.5%	-3.8%	0.8%
30	/	3.8%	-0.3%	-7.2%
31	-5.6%	-14.5%	9.9%	-19.6%
32	?	-128.0%	-31.1%	?
33	13.7%	-199.7%	/	?
34	15.0%	1.8%	-4.5%	-4.7%
35	1.1%[46.1 µM]	/	/	-15.2%
36	?	/	2.3%	?

Additional compounds follow:
entry	SMILES	Cruzain Triton	RE007 growth inh	Cruzain inh noDet	MARV entry inh
37	Cc1cc(C)n2cc(CSc3nnc(N)s3)nc2n1	4.5%	-18.3%	2.5%	8.2%
38	COc1cccc(N(CC(=O)NC2CCCCC2)C(=O)CCCC(=O)Nc2ccccn2)c1	/	-3.3%	/	?
39	Cc1nn(C)c(Oc2ccccc2)c1CCNC(=O)C(C)(C)C	/	9.8%	/	/
40	COc1ccccc1C(=O)Nc1nc2ccccc2[nH]1	/	?	/	/
41	CCOC(=O)CN/C=C(\C#N)c1ccccc1	-5.2%	-23.2%	1.6%	5.8%
42	Cc1ccc(C)c(NC(=O)CCCCCCCCCCC2COCCO2)c1 (stereo not given)	-2.5%	4.7%	15.8%	-8.0%
43	Cc1nc(NC(=O)CCc2ccccc2)ccc1Br	-2.3%	-17.5%	-5.8%	-12.2%
44	O=C(NCc1cccs1)c1cc(S(=O)(=O)N2CCOCC2)c(Cl)cc1Cl	/	-5.1%	/	/
45	COc1ccc2c(c1)c1c(c(=O)n(-c3cccc(Cl)c3)c(=O)n1CC(=O)NCC1CCCO1)n2C (stereo not given)	-2.5%	/	10.9%	/
46	COc1cc(C(=O)O/N=C(\N)c2cccc([N+](=O)[O-])c2)cc(OC)c1OC	/	-5.8%	/	-0.8%
47	O=C(NCc1ccccn1)c1ccc(Cl)c(S(=O)(=O)N2CCCCC2)c1	/	-2.3%	/	-9.6%[46.1 µM]

entry	LASV entry inh	NS1 inh	SARS PLP yeast	StopGo reporter
37	1.9%	8.8%	3.8%	-22.6%
38	0.9%[46.1 µM]	6.4%	1.4%	10.7%
39	/	-1.4%	0.8%	-13.8%
40	/	-44.5%	-15.7%	1µM*
41	13.1%	-1.2%	7.1%	13.4%
42	4.7%	6.3%	11.2µM*	-29.5%
43	-22.2%	-48.8%	-7.1%	6.5%
44	/	14.6%	1.5%	-1.7%
45	11.1%[46.1 µM]	/	/	-14.4%
46	-15.1%	1.3%	-1.1%	-5.7%
47	-17.1%	-0.9%	0.6%	-28.8%

Screening results from PubChem.
